2A firefly: FMDV 2A StopGo reporter, firefly signal. HEK cells with a luciferase reporter of 2A StopGo recoding. Potency, µM (highest dose often 57.5 µM), without a hit: at the highest dose signal change, negative = less light. hit rate 0.23% among 120,000; active = well fitted falling curve with a large enough effect; inconclusive = small, poorly fitted or top-dose-only effect; inactive = no such curve, though single readings can be large or run the other way; also: nearly all actives have a fitted effect of over 60% in size; overnight with compound
StopGo RLuc: FMDV 2A StopGo reporter, Renilla signal; HEK cells with a luciferase reporter of 2A StopGo recoding; Potency, µM (highest dose often 57.5 µM), inactives show at the highest dose signal change, negative = less light; hit rate 0.32% among 120,000; AID 1745857; active means well fitted falling curve with a large enough effect; inconclusive means small, poorly fitted or top-dose-only effect; inactive means no such curve, though single readings can be large or run the other way; also: nearly all actives have a fitted effect of over 55% in size; overnight with compound
Starred values were filed as active, the others as inactive; ? = inconclusive; & = joins results of further samples; [ ] = another dose, or the depositor's remark. % is scaled to controls: 0 for no effect and ±100 for the full control effect; potency is read from the fitted curve at half-maximal effect. The list is partial, so the mix of outcomes need not match the whole.

The first 4 compounds, ahead of the listing:
| Compound | StopGo RLuc | 2A firefly |
| --- | --- | --- |
| COC(=O)C1=C(C)OC(N)=C(C#N)C1c1ccc(C(=O)OC)cc1 (stereo not given) | 14% | 12% |
| Cc1sc2ncnc(Sc3nnc(-c4ccccc4F)n3C)c2c1C | 128%[activator] | 2% |
| CC1=C(c2ccc(C(C)C)cc2)S(=O)(=O)N=C1N1CCC(C(=O)NCCc2ccco2)CC1 | 60%[activator] | 4% |
| CCCCCn1c(SCC(N)=O)nc2c1c(=O)[nH]c(=O)n2C | 42%[activator] | 44%[activator] |

The whole of this part (from the top)
| Compound | StopGo RLuc | 2A firefly |
| --- | --- | --- |
| COC(=O)C1=C(C)OC(N)=C(C#N)C1c1ccc(C(=O)OC)cc1 (stereo not given) | 14% | 12% |
| Cc1sc2ncnc(Sc3nnc(-c4ccccc4F)n3C)c2c1C | 128%[activator] | 2% |
| CC1=C(c2ccc(C(C)C)cc2)S(=O)(=O)N=C1N1CCC(C(=O)NCCc2ccco2)CC1 | 60%[activator] | 4% |
| CCCCCn1c(SCC(N)=O)nc2c1c(=O)[nH]c(=O)n2C | 42%[activator] | 44%[activator] |
| CCn1nc(C(=O)N(C)C2CCCc3ccccc32)c2ccccc2c1=O (stereo not given) | 62%[activator] | -29% |
| Cc1[nH]c2ccccc2c1C(=O)C(=O)Nc1ccccc1CN(C)C | 14% | -5% |
| Cc1ccc(-n2nc(C)c3c(C(=O)NCc4ccccc4)cc(C4CC4)nc32)cc1 | -6% | -4% |
| COc1ccccc1C(=O)NCc1nnnn1-c1ccc(C)c(C)c1 | 13% | -2% |
| Cc1cc(F)ccc1NC(=O)C12CC3CC(CC(C3)C1)C2 | 13% | 19% |
| Cc1ccc(C)c(NC(CNS(=O)(=O)c2ccccc2)c2ccccc2)c1 (stereo not given) | 102%[activator] | -10% |
| COc1ccc(CCNC(=O)Cc2c(C)c3ccc(O)cc3oc2=O)cc1OC | 9% | 16% |
| Cc1ccc(CN2CCSc3ccc(C(=O)N4CCN(c5cccc(C)c5C)CC4)cc32)cc1 | 0% | -1% |
| COc1ccccc1-n1c(SCc2nnnn2-c2ccccc2)nnc1N1CCCCC1 | 71%[activator] | 4% |
| COc1cccc(NC(=O)C2CCCN(C(=O)c3ccc(OC)c4ccccc34)C2)c1 (stereo not given) | 20% | 20% |
| Cc1cc(C)c2oc(-c3cccc(NC(=O)c4ccc(-c5cccc([N+](=O)[O-])c5)o4)c3)nc2c1 | 0% | 30% |
| Cc1cccc(C(=O)Nc2ccc3oc(-c4ccc(F)cc4)nc3c2)c1 | -2% | 15% |
| O=C(/C=C/c1cccc(O)c1)c1ccsc1 | 20% | 105%[activator] |
| O=C(CCS(=O)(=O)c1ccc2c(c1)NC(=O)CS2)NCc1ccccc1 | -2% | 10% |
| COC(=O)c1ccc(CSc2nc3c([nH]c4ccccc43)c(=O)n2-c2ccc(OC)cc2)o1 | -12% | 7% |
| CC1(C)C2CC=C(/C=N/NC(N)=O)C1C2 (stereo not given) | -7% | -5% |
| Cc1cccc(C(=O)NC(Nc2ccccc2)C(Cl)(Cl)Cl)c1 (stereo not given) | 4% | -4% |
| O=C(OCc1ccc([N+](=O)[O-])cc1)c1ccc(OC(F)(F)F)cc1 | 1% | 10% |
| COc1cc(OC)c(NC(=O)N2CCc3c(sc4c3CCCC4)C2c2ccccc2)cc1Cl (stereo not given) | 5% | -11% |
| Cc1ccc(OCc2nc(-c3ccc(C(=O)N4CCN(c5ccccc5F)CC4)cc3)oc2C)cc1 | -9% | -15% |
| O=[N+]([O-])c1cc(-c2nc(-c3ccccc3)no2)ccc1NCc1cccnc1 | -3% | 81%[activator] |
| CCOC(=O)/C=C1/CCC(C=O)=C1N1CCOCC1 | 6% | -2% |
| CCCn1nc(C(=O)NCc2cccc(Cl)c2)c2ccccc2c1=O | 4% | -22% |
| O=C(Cc1ccc(-c2ccccc2)cc1)NCCS(=O)(=O)N1CCN(c2ccccc2)CC1 | -5% | 0% |
| CN(C)S(=O)(=O)c1ccc2c(c1)N(CC(=O)Nc1ccc(OC(F)(F)F)cc1)C(=O)CS2 | 2% | -3% |
| O=C(NCC1CCN(Cc2cccc(Cl)c2)CC1)c1cc2ccc3cccnc3c2[nH]1 | -11% | -15% |
| Cc1cccc(C)c1NC(=O)c1nc(SC(C)C)ncc1Cl | 21% | 0% |
| CCCCCNc1nc2c(c(=O)n(C)c(=O)n2C)n1Cc1ccccc1F | 8% | -6% |
| COc1cc(OC)c(C2=CCN(C(=O)c3ccc(OCc4noc(C)n4)cc3)CC2)c(OC)c1 | 64%[activator] | 15% |
| COc1cc(OC)c(NC(=O)N2CCc3cc(OC)c(OC)cc3C2CC(=O)O)cc1Cl (stereo not given) | -5% | -5% |
| Cc1[nH]c2ccccc2c1C(=O)CSc1ccc(Cl)cc1 | -12% | 29% |
| Cc1ccc(-n2nc(N3CCN(C(=O)Nc4ccccc4C)CC3)ccc2=O)cc1C | -13% | -13% |
| COc1ccc(N2C(=O)CN(C3CCCCC3)[C@H]3CS(=O)(=O)C[C@H]32)cc1 | 18% | 0% |
| CCc1cc(=O)oc2cc(OC(C)C(=O)NC3CCCCCC3)ccc12 (stereo not given) | 11% | 9% |
| CCCCNC(=O)CCc1c[nH]c2ccccc12 | -10%[1.06 µM] | 14% |
| Cc1ccc(F)c(NC(=O)CCc2c(C)nc(C)[nH]c2=O)c1 | -3% | -6% |
| O=C(Nc1ccc(Cl)cc1F)c1nccnc1-c1nc2ccccc2s1 | -5% | 46%[activator] |
| CCOC(=O)CSc1nnc2c3c(c(C#N)c(Nc4ccc(C)cc4)n12)CC(C)(C)OC3 | -4% | 4% |
| CCCCNc1oc(-c2ccc(S(=O)(=O)N3CCOCC3)cc2)nc1C#N | 31%[activator] | -6% |
| COC(=O)c1ccc(CNC(=O)c2cccc(C)c2C)cc1 | 24% | 54%[activator] |
| O=C(CSC1=Nc2ccccc2N=C(c2ccc(F)cc2)C1)Nc1cccc(C(F)(F)F)c1 | 4% | ? |
| Cn1nc(-c2ccccc2)c(-c2ccccc2)c(C(=O)Nc2ccc(S(N)(=O)=O)cc2)c1=O | -7% | -23% |
| COc1ccccc1N1CCN(S(=O)(=O)c2ccc(-c3cnc(C4CC4)o3)cc2)CC1 | -15% | ? |
| Cc1cccc(N/N=C/c2ccc(Cl)c(Cl)c2)c1 | 0% | 273%[activator] |
| O=[N+]([O-])c1cc(/C=N/Nc2ccc(S(=O)(=O)Nc3ccc(Cl)cc3)cc2[N+](=O)[O-])ccc1Cl | 30% | 2% |
| CCNC(=O)CC12CC3CC(C1)CC(CC(=O)NCC)(C3)C2 | 7% | 3% |
| O=S(=O)(Nc1ccc2oc(-c3ccc(I)cc3)nc2c1)c1ccccc1 | 56%[activator] | 0% |
| N#Cc1nc(COc2ccc(Cl)cc2)oc1NCc1ccco1 | -7% | 34%[activator] |
| CCOC(=O)c1ccc(NC(=O)C2CCCN(c3cnccn3)C2)cc1 (stereo not given) | 18% | 71%[activator] |
| O=C(Cc1n[nH]c(=O)c2ccccc12)Nc1ccc(S(=O)(=O)N2CCCC2)cc1 | 2% | -1% |
| CCc1ccc(NC(=O)C2CCN(c3cc(C)nc4c(-c5ccc(Cl)cc5)c(C)nn34)CC2)cc1 | -5% | -14% |
| COc1cc(NC(=O)c2nnn(CC(=O)Nc3ccccc3)c2N)cc(OC)c1 | 10% | 13% |
| CN(C)CCC1CCN(C(=O)Nc2ccccc2C(F)(F)F)CC1 | -21% | -9% |
| COCCC1=NN(C(=O)c2ccncc2)C(O)(C(F)(F)F)C1 (stereo not given) | 3% | 9% |
| Cc1scnc1C12CC3CC(CC(C3)C1)C2 | 0% | 16% |
| Cc1cc(OCC(=O)N2CCN(CCc3ccncc3)CC2)ccc1Cl | -2%&-11% | 0%&23% |

(further entries)
| Compound | StopGo RLuc | 2A firefly |
| --- | --- | --- |
| CCc1nn(CC(=O)NCCOC)c(=O)c2cc3cc(F)ccc3n12 | -4% | -8% |
| Cc1ccc(/C=C/c2onc(C)c2S(=O)(=O)N2CCC(C(=O)Nc3ccc(C)c(N(C)C)c3)CC2)cc1 | -5% | -10% |
| Cc1ccc(-c2nc(S(=O)(=O)c3ccccc3)c(N3CCN(c4ccccc4)CC3)o2)cc1 | -12% | -12% |
| Cn1nnc2c(N3CCN(c4ccccc4Cl)CC3)ncnc21 | -15% | -12% |
| CCOC(=O)c1cc2c(Cl)cc(Cl)cc2[nH]1 | 15% | 43%[activator] |
| Fc1ccc(-n2ncc3c(NC4CCCCC4)ncnc32)cc1 | -2% | 78%[activator] |
| CCOC(=O)c1cnc(SCC(=O)Nc2ccc(C)c(Cl)c2)nc1N | 5% | 63%[activator] |
| COc1ccc(-c2[nH]ncc2C(=O)NCc2ccc(F)cc2)cc1 | 1% | 0% |
| Cc1cc(N2C(=O)CCS2(=O)=O)ccc1S(=O)(=O)NC(C)C | -5% | 0% |
| CC(=O)c1ccc(NC(=O)C(C)OC(=O)c2nc(-c3ccccc3)oc2C)cc1 (stereo not given) | -11% | 17% |
| CCOC(=O)c1cc(S(=O)(=O)NCc2ccc(C)cc2)[nH]n1 | 76%[activator] | -7% |
| Cc1ccc(/C=C2\Oc3cc(OS(=O)(=O)c4ccc(C)cc4)ccc3C2=O)cc1 | 10% | -4% |
| CC(C)OCCCNC(=O)c1cc2cc(S(=O)(=O)N(C)C)ccc2n1Cc1ccccc1 | 11% | 0% |
| CC(C)c1ccc(NC(=O)CSC2=Nc3ccccc3C3=NC(CC(=O)NCc4ccco4)C(=O)N23)cc1 (stereo not given) | -14% | -25% |
| O=C(NC(c1ccccc1)c1ccccc1)c1n[nH]c(=O)c2ccccc12 | 4% | 1% |
| CC1(C)CC(NC(=S)Nc2ccccc2F)CC(C)(C)N1 | 12% | 14% |
| N#CCCn1cc(-c2csc(NC3CCCC3)n2)c2ccccc21 | -10% | -13% |
| CCOC(=O)c1ccc(NC(=O)CC2C(=O)N(c3ccccc3)C(=O)N2Cc2cccs2)cc1 (stereo not given) | 72%[activator] | -12% |
| CCCC(=O)OC[C@@H](OC(=O)CCC)[C@@H](OC(=O)CCC)[C@H](Cn1c2nc(=O)[nH]c(=O)c-2nc2cc(C)c(C)cc21)OC(=O)CCC | -12% | -16%[11.5 µM] |
| Cc1ccccc1-c1nc(C#N)c(N2CCN(Cc3ccccc3)CC2)o1 | -8% | 43%[activator] |
| Cc1cccc(OCCNc2ccc([N+](=O)[O-])c3cccnc23)c1 | -14% | 7% |
| O=C(NCCc1ccc(Cl)cc1)c1ccc(CS(=O)(=O)c2ccc(Cl)cc2)o1 | -3% | -15% |
| CCOC(=O)c1sc(NC(=O)Nc2ccc(F)cc2)nc1C | 28% | 198%[activator] |
| Cc1ccc(NS(=O)(=O)c2cc(NC(=O)Cc3n[nH]c(=O)c4ccccc34)ccc2C)c(C)c1 | 55%[activator] | ? |
| O=c1[nH]c(N2CCOCC2)nc2nccc(-c3ccccc3)c12 | 10% | 16% |
| O=C(COc1ccccc1Cl)Nc1nnc(S(=O)(=O)N2CCCC2)s1 | -5% | -6% |
| NS(=O)(=O)c1cccc2nsnc12 | 0% | 0% |
| CCOc1ccc(N2CC(c3nc4ccccc4n3CCOc3ccccc3OC)CC2=O)cc1 (stereo not given) | 20% | -11% |
| CN1CCC2(CC1)Oc1ccccc1C1CC(c3ccc(Cl)c(Cl)c3)=NN12 (stereo not given) | -2% | 45%[activator] |
| COc1ccc(CCNC(=O)C(C(C)C)N2Cc3ccccc3C2=O)c(OC)c1OC (stereo not given) | 2% | -2% |
| COc1ccc(CCNC(=O)c2sc3nc4n(c(=O)c3c2C)CCCC4)cc1OC | -11% | -9% |
| COC(=O)c1c(-c2ccc(Cl)cc2)noc1N1CCN(c2ccc(C)cc2C)CC1 | -4% | -12% |
| CC(C)C(=O)N/N=C/C=C/c1ccccc1 | 11% | 158%[activator] |
| COc1ccc(OCC(=O)NC2CC(=O)N(c3cccc(OC)c3)C2)cc1 (stereo not given) | -16% | -3% |
| Cc1ccc(C(=O)/C=C/c2ccc(-c3ccccc3)cc2)cc1[N+](=O)[O-] | -3% | -31% |
| CCOC(=O)c1c(C)oc2nc(C)nc(NCc3ccccc3Cl)c12 | -13% | -15% |
| COc1ccc(NS(=O)(=O)c2ccc3c(c2)n(C)c(=O)c(=O)n3C)cc1Cl | 212%[activator] | 17% |
| CC(C)C(=O)Nc1c(C(=O)Nc2cccc(F)c2)oc2ccccc12 | -9% | 89%[activator] |
| COc1cccc(-c2ocnc2C(=O)Nc2cccc(C)c2C)c1 | 5% | 22% |
| Cn1c(NC(=O)c2cccs2)c(-c2cccs2)c(=O)c2ccccc21 | -8% | 1% |
| O=C(COc1ccc(C2SCCCS2)cc1)Nc1ccc(F)cc1 | -15% | 28% |
| O=C(NCCCOCC1CC1)c1cc(=O)[nH]c2ccccc12 | 9% | 9% |
| CCCC(C)NC(=O)C1CCN(C(C)=O)CC1 (stereo not given) | -8%[1.06 µM] | 0% |
| COC(=O)c1sc2cccc(F)c2c1S(=O)(=O)NCc1ccccc1Cl | 161%[activator] | -16% |
| N#Cc1cnn2c1NC1=C(C(=O)CCC1)C2c1ccccc1 (stereo not given) | -4% | 5% |
| Nc1ccc(N=Cc2ccc(Cl)cc2Cl)cc1Cl | 7% | 91%[activator] |
| CCOc1ccc(NS(=O)(=O)c2ccc3c(c2)CCN3C(C)=O)cc1 | 5% | 2% |
| CN(C)c1ccc(S(=O)(=O)N2CCCCC2)cc1NCC(=O)Nc1ccc(N2CCCC2)cc1 | 18% | -4% |
| COc1cccc(/C=C(/C#N)C(=O)c2c(Cl)cccc2Cl)c1 | 9% | 25% |
| O=C(NCCc1ccc(Cl)cc1)c1ccc(CS(=O)Cc2cccc(Cl)c2)o1 (stereo not given) | -6% | -11% |
| Cc1cccc(NS(=O)(=O)c2ccc3c(c2)CCN3S(C)(=O)=O)c1C | 112%[activator] | -20% |

Screening results deposited in PubChem BioAssay by National Center for Advancing Translational Sciences (NCATS).
